Assay outcomes from PubChem BioAssay.
Measles inh = inhibitors of measles virus growth in infected cells. AID 745. hit rate 0.1% among 33,000. z-score (test concentration not listed). infected Vero cells, GFP fluorescence, 64 h; active compounds read low;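 active means z-score under -3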;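 further: score is relative to mean and SD of the compound wells of a plate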
Numbers without * were called inactive. An excerpt. The share of hits here may be higher or lower than overall.

Measles inh,mol
-0.25,COc1ccc2c(c1)c1c(n2C(C)=O)C(OC(C)=O)=NCC1
0.57,COc1cc(Cl)ccc1Nc1ncc(C(=O)N2CCN(c3ccccc3F)CC2)c2ccccc12
-0.53,Cc1ccc2nc(NC(=O)CCN3C(=O)C4C5C=CC(C5)C4C3=O)sc2c1 (centres undefined)
0.82,CC(C)c1ccc(OC(=O)CN2C(=O)c3ccccc3C2=O)cc1
-1,CCOC(=O)c1ccc2nc(C)cc(Nc3cccc(Cl)c3C)c2c1
-0.64,COCCn1c(=S)[nH]c2cc(OC)c(OC)cc2c1=O
-1.4,O=C(O)CC(NS(=O)(=O)c1cccc2nsnc12)c1ccc(F)cc1 (centres undefined)
-0.47,O=C(c1cc2nc(-c3ccc(Br)cc3)cc(C(F)(F)F)n2n1)N1CCCC1
-0.57,Cc1ccc(CN2C(=O)c3ccccc3C2C(=O)NC2CCCCCC2)cc1 (centres undefined)
-0.15,O=S(=O)(c1ccccc1)c1nc(Cc2ccccc2)oc1N1CCCCC1
1.2,O=C(c1cnc2sccn2c1=O)N1CCN(c2ccccc2)CC1
1.6,Cc1ccc(C2C(Oc3ccccc3C)C(=O)N2c2ccc(F)cc2)cc1 (centres undefined)
0.05,S=c1[nH]c(=S)c2c3c(sc2[nH]1)CCC3
0.61,CN(CC(=O)Nc1ccccc1Br)S(=O)(=O)c1cccs1
1.2,CCCCc1ccc(NC(=O)CSc2nccn2-c2ccc(Cl)cc2)cc1
-0.42,CN(C)CCOC(=O)c1c[nH]c2ccccc12
-1.2,CCn1c(=O)c(C(=O)Nc2c(C)cccc2C)c(O)c2ccccc21
-0.59,COc1cc(C2NC(=O)N(C)C(C)=C2C(=O)OCCC(C)C)cc(Cl)c1O (centres undefined)
0.74,Cc1ccc(NC(=O)C(C)N2C(=O)c3ccccc3C2=O)cc1C (centres undefined)
0.94,Cc1ccc(C2/C(=C(\O)c3ccc(Cl)cc3)C(=O)C(=O)N2CCCn2ccnc2)cc1 (centres undefined)
2.2,CCN(CC)CCn1c(=N)n(CC(O)c2ccco2)c2ccccc21 (centres undefined)
0.75,CC1(C)CC(n2c(SCc3ccccc3)nc3c(c2=O)C2(CCCC2)Cc2ccccc2-3)CCO1 (centres undefined)
0.09,CCCCOc1ccc(C(=O)Nc2ccc3oc(-c4ccccc4F)nc3c2)cc1
-1.1,CC(=O)N1N=C(c2ccc(C)c(Cl)c2)OC1(C)C
-0.54,Cc1cccc(NC(=O)C(Cc2ccccc2)NS(=O)(=O)c2ccc(Br)s2)n1 (centres undefined)
-2.6,O=C(NCCc1ccc(Cl)cc1)c1cc(-c2cccnc2)nc2ccccc12
-0.51,Cn1c(=NC(=O)c2ccc(S(=O)(=O)N3CCOCC3)cc2)sc2cc(Br)ccc21
-0.73,Cc1c(C(=O)NC2CCCCC2C)oc2ccc(S(=O)(=O)N3CCCCC3)cc12 (centres undefined)
-0.06,O=C(O)C1CC(=O)N(C2CCCCCC2)C1 (centres undefined)
-1.6,COc1ccc(-n2nc3c(c2NC(=O)CCC2CCCC2)CS(=O)(=O)C3)cc1

Some of the entries so far, comma-delimited:
mol,Measles inh
Cc1ccc2nc(NC(=O)CCN3C(=O)C4C5C=CC(C5)C4C3=O)sc2c1 (centres undefined),-0.53
CC1(C)CC(n2c(SCc3ccccc3)nc3c(c2=O)C2(CCCC2)Cc2ccccc2-3)CCO1 (centres undefined),0.75

Carrying on:
Measles inh,mol
-0.06,CCOc1ccc(NC(=O)Cn2c(=O)n(-c3ccc(Cl)cc3)c(=O)c3c(C)c(C(=O)N(C)C)sc32)cc1
0.92,Cc1ccc(-c2nnc(N)s2)cc1C
1,O=C(O)c1ccc(-n2cnnn2)cc1
1.7,CC(=O)N1CCN(c2ccc([N+](=O)[O-])c(N3CCCCC3)c2)CC1
-0.21,CCC1CCCCN1CCCNC(=O)C1CCC(Cn2c(=O)[nH]c3ccccc3c2=O)CC1 (centres undefined)
0.14,CCC(=O)N1CCc2cc(S(=O)(=O)CCC(=O)Nc3cccc(C)n3)ccc21
2.4,CC(C)c1ccc(C2/C(=C(\O)c3ccc(F)cc3)C(=O)C(=O)N2CCCN(C)C)cc1 (centres undefined)
-0.59,O=c1[nH]c(-c2ccccc2O)nc2ccccc12
0.39,COc1ccccc1-c1nc(SCc2ccccn2)n[nH]1
0.97,CCCCCC1CC(CC(O)CO)C(=O)O1 (centres undefined)
-1.2,CN1c2cccc3cccc(c23)N(C)C1(C)C
0,Cc1ccc(C)c(OCCc2c(C)n[nH]c2C)c1
0.91,CCC(=O)N1CCc2cc(S(=O)(=O)CCC(=O)N3CCN(Cc4ccccc4)CC3)ccc21
0.56,C=CCN(CC=C)S(=O)(=O)c1nc2nc(C)c(C)c(C)n2n1
0.15,CCN1C(=O)NC(c2ccccc2[N+](=O)[O-])C(C(=O)OC2CCCCC2)=C1C (centres undefined)
0.34,CCc1cccc(NC(=O)CCS(=O)(=O)c2ccc(Br)cc2)c1
0.31,COc1ccc(C2=NN(CC(=O)N3CCN(c4ccccc4OC)CC3)C(=O)CC2)cc1
-0.83,CCCCCn1c(SCC#N)nc2cc(C(=O)N3CCc4ccccc4C3)ccc2c1=O
1.6,CCCOc1cccc(C(=O)Nc2ccc3nn(-c4ccc(OC)cc4)nc3c2)c1
-0.32,O=C(NC1CCCC1)c1cc(-c2cccs2)on1
-0.1,CCCOC(=O)C1=C(C)NC2=C(C(=O)CC(C)(C)C2)C1c1ccncc1 (centres undefined)
0.6,Cc1ccc(C(=O)Nc2ccc(-c3noc(-c4cccc(Cl)c4)n3)cc2)cc1[N+](=O)[O-]
0.45,CC(C)C(C(=O)Nc1nccs1)N1C(=O)c2ccccc2C1=O (centres undefined)
7.2,CN1CCc2c(sc3c2C(=O)NC(c2ccc(OC(=O)c4ccc(C(C)(C)C)cc4)cc2)N3)C1 (centres undefined)
-0.18,Cc1cccc(OCC(=O)Nc2ccc3oc(-c4cccnc4)nc3c2)c1
0.19,CC1Nc2ccccc2-c2nnc(SCc3ccc(Cl)cc3)nc2O1 (centres undefined)
-0.24,c1ccc2c(c1)N1CCN2CC1
0.01,COc1ccc(C)cc1NC(=O)c1oc(=O)c2ccccc2c1-c1ccccc1
-0.55,COc1cccc(C2C3=C(Nc4c2c(=O)[nH]c(=O)n4C)c2ccccc2C3=O)c1 (centres undefined)
-1.8,CN(C)S(=O)(=O)c1ccc(C(=O)N2CCN=C2SCc2cccc(C(F)(F)F)c2)cc1

A second format for 20 compounds above:
Molecule	Measles inh
CC(=O)N1CCN(c2ccc([N+](=O)[O-])c(N3CCCCC3)c2)CC1	1.7
CCC1CCCCN1CCCNC(=O)C1CCC(Cn2c(=O)[nH]c3ccccc3c2=O)CC1 (centres undefined)	-0.21
CCC(=O)N1CCc2cc(S(=O)(=O)CCC(=O)Nc3cccc(C)n3)ccc21	0.14
CC(C)c1ccc(C2/C(=C(\O)c3ccc(F)cc3)C(=O)C(=O)N2CCCN(C)C)cc1 (centres undefined)	2.4
O=c1[nH]c(-c2ccccc2O)nc2ccccc12	-0.59
COc1ccccc1-c1nc(SCc2ccccn2)n[nH]1	0.39
CCCCCC1CC(CC(O)CO)C(=O)O1 (centres undefined)	0.97
CN1c2cccc3cccc(c23)N(C)C1(C)C	-1.2
Cc1ccc(C)c(OCCc2c(C)n[nH]c2C)c1	0
CCC(=O)N1CCc2cc(S(=O)(=O)CCC(=O)N3CCN(Cc4ccccc4)CC3)ccc21	0.91
C=CCN(CC=C)S(=O)(=O)c1nc2nc(C)c(C)c(C)n2n1	0.56
CCN1C(=O)NC(c2ccccc2[N+](=O)[O-])C(C(=O)OC2CCCCC2)=C1C (centres undefined)	0.15
CCc1cccc(NC(=O)CCS(=O)(=O)c2ccc(Br)cc2)c1	0.34
COc1ccc(C2=NN(CC(=O)N3CCN(c4ccccc4OC)CC3)C(=O)CC2)cc1	0.31
CCCCCn1c(SCC#N)nc2cc(C(=O)N3CCc4ccccc4C3)ccc2c1=O	-0.83
CCCOc1cccc(C(=O)Nc2ccc3nn(-c4ccc(OC)cc4)nc3c2)c1	1.6
O=C(NC1CCCC1)c1cc(-c2cccs2)on1	-0.32
CCCOC(=O)C1=C(C)NC2=C(C(=O)CC(C)(C)C2)C1c1ccncc1 (centres undefined)	-0.1
Cc1ccc(C(=O)Nc2ccc(-c3noc(-c4cccc(Cl)c4)n3)cc2)cc1[N+](=O)[O-]	0.6
CC(C)C(C(=O)Nc1nccs1)N1C(=O)c2ccccc2C1=O (centres undefined)	0.45

Additional results
Measles inh,mol
-0.04,CCOc1ccccc1-n1cnc2cc(C(=O)O)ccc21
1.5,COc1cccc(C(=O)Nc2ccc(-c3nc4cc(C(C)C)ccc4o3)cc2)c1
-0.72,Cc1ccc(-c2nc3scc(-c4ccc(C)cc4)c3c(=O)o2)cc1
0.43,CC(C)C(=O)Nc1ccc(S(=O)(=O)Nc2nccc(C=Cc3ccccc3F)n2)cc1
0.11,CCC(=O)N1c2ccccc2C(C)(c2ccccc2)CC1(C)C (centres undefined)
-0.35,COc1ccc(Nc2cc(N3CCN(C)CC3)c3noc4c3c2C(=O)c2ccccc2-4)cc1
0.81,O=C(c1ccc(Cn2c(=O)[nH]c3ccccc3c2=O)cc1)N1CCN(c2ccc(F)cc2)CC1
-0.21,O=C(c1cccc(F)c1)N1CCN(C(=O)c2ccco2)CC1
0,Cc1ccc(OCCCCCc2c(C)n[nH]c2C)cc1
0.04,COc1ccc2oc(=Nc3ccccc3C)c(C(=O)NC(C)=O)cc2c1
0.7,COc1ccc(C2c3sc(=O)[nH]c3SC3C4CC(C5C(=O)N(c6cccc(C(F)(F)F)c6)C(=O)C45)C23)cc1 (centres undefined)
0.21,C=CCn1c(SCC(=O)c2ccc(CC)cc2)nnc1-c1cccc(OC)c1
0.13,CN1C2=C(C(=O)CCC2)C(c2ccc(O)cc2)C2=C1CCCC2=O
0.03,COc1ccc(C2C(C(=O)Nc3ccccc3F)CCC(=O)N2c2cc(OC)c(OC)c(OC)c2)cc1 (centres undefined)
0.85,Cc1cc(C(=O)OC(C)C(=O)OC(C)C)ccc1[N+](=O)[O-] (centres undefined)
-0.15,O=C(Cc1ccc(-n2c(=O)c3ccccc3n(Cc3cc(=O)n4ccccc4n3)c2=O)cc1)NC1CCCC1
0.27,CCOC(=O)c1sc2nc(C)nc(N(C)Cc3ccccc3)c2c1C
-0.14,COc1ccc(NC(=O)c2cc3c(CO)cnc(C)c3oc2=Nc2ccccc2OC)c(OC)c1
0.66,CCCC1=NN(S(=O)(=O)c2ccccc2)C(O)(C(F)(F)F)C1 (centres undefined)
-0.5,CN(C)c1ccc(NC(=O)CN2CCN(CC(=O)Nc3ccc(Cl)cc3)CC2)cc1
0.55,CC12CC(NC(=O)N1c1cccc(C(F)(F)F)c1)c1ccccc1O2 (centres undefined)
0.21,CC1CCc2c(sc(NC(=O)COc3ccc(C(C)C)cc3)c2C(N)=O)C1 (centres undefined)
0.47,CCOC(=O)c1c(CN(C)C)oc2ccc(O)cc12
1.5,COc1ccc(NC(=O)C2CC(=O)N(CCc3ccc(F)cc3)C(=Nc3ccccc3F)S2)cc1 (centres undefined)
-0.11,O=C(c1ccccc1[N+](=O)[O-])N1CCN(S(=O)(=O)c2ccc(Cl)cc2)CC1
0.24,O=C(NCCc1ccccc1)c1cc(S(=O)(=O)N2CCCCC2)ccc1F
2.2,O=C(Nc1nnc(Cc2ccccc2)s1)c1ccccc1I
-0.06,c1ccc2c(NC3C4CC5CC(C4)CC3C5)nc(N3CCOCC3)nc2c1 (centres undefined)
-0.15,C=CCOC(=O)C1=C(C)NC(C)=C(C(=O)OCC=C)C1c1ccccc1F
-2.1,Cc1nn(C(C)(C)C)c(OC(=O)c2ccc(F)cc2)c1S(=O)(=O)c1ccccc1

Continuation:
Measles inh,mol
-0.07,CC(C)c1ccc(NC(=O)C2c3ccccc3C(=O)N(C)C2c2cccs2)cc1 (centres undefined)
2.4,COc1cc(C)c(C(C)C)cc1S(=O)(=O)n1ccnc1C
-0.36,COc1ccc(NC(=O)N2c3cc(C)c(C)cc3C(C)=CC2(C)C)cc1OC
-1.1,CCc1ccc(C2NC(=O)NC(C)=C2C(=O)OCc2ccccc2)cc1 (centres undefined)
1.7,CC(C)C(NC(=O)C12CC3CC(CC(C3)C1)C2)C(=O)NC1=NCCS1 (centres undefined)
-0.11,CCOC(=O)c1c(C)n(S(=O)(=O)c2ccc(C)cc2)c2ccc(NS(=O)(=O)c3ccc(C)cc3)cc12
-0.43,C=CCNC(=O)c1sc2cc(Cl)ccc2c1Cl
1.7,Cc1cccc(NC(=O)C(C)N(c2ccccc2)S(C)(=O)=O)c1 (centres undefined)
1.4,CCOC(=O)C1C2C=CC3(CN(c4ccccc4Br)C(=O)C13)O2 (centres undefined)
1.1,COc1cccc(C(=O)NCc2ccccc2OC)c1
-1.2,Cc1cccc(NC(=O)CSc2nccn2-c2cccc(Cl)c2)c1C
-0.59,Cc1nc(Nc2ccccc2)c([N+](=O)[O-])c(=O)[nH]1
-0.09,O=C(NCCc1ccccc1)c1cc(-c2cccnc2)nc2ccc(S(=O)(=O)N3CCCCCC3)cc12
-0.52,O=[N+]([O-])c1c(Cl)cc(O)c2c1C1C=CCC1C(c1ccccc1)N2 (centres undefined)
-1.2,COc1ccc(C(=O)Nc2sc3c(c2C(N)=O)CCCC3)cc1OC
0.25,CC(=O)c1cc2cc(O)ccc2o1
-0.61,O=S(=O)(NC1CCCCCC1)c1cccc2cccnc12
-0.51,COc1ccc(NC(=O)c2ccccc2NC(=O)CN2C(=O)c3ccccc3C2=O)cc1
-0.2,CCOC(=O)c1c(C)oc2cc(Br)c(OC(=O)c3ccccc3)cc12
-1.3,O=c1nc(C=Cc2ccc(O)cc2)cc(C(F)(F)F)[nH]1
1.5,COc1ccc(-n2c(CNC(=O)c3ccc(S(=O)(=O)N4CCCC4)cc3)n[nH]c2=S)cc1
-0.47,O=C(OCc1ccc(-c2ccc(Br)cc2)o1)c1cccc(I)c1
-1.9,COc1ccc(Br)c(C(=O)Nc2cc(C(=O)Nc3ccccc3SC)ccc2N2CC3CC(C2)c2cccc(=O)n2C3)c1 (centres undefined)
-0.45,O=C(Nc1ccc(-c2nc3ncccc3o2)cc1)c1ccccc1Br
-0.25,Cc1cc(NCC2CCCO2)n2c(nc3ccccc32)c1C#N (centres undefined)
-0.01,O=S(=O)(NCc1ccco1)c1ccc(Cl)cc1
1,Cc1nc2nc(CO)[nH]n2c(=O)c1Cc1ccccc1
0.15,Cc1ccc(-c2nc3ccccc3c(=O)n2Cc2csc(-c3ccc(Cl)cc3)n2)cc1
0.34,O=C1c2cccc3cccc(c23)C(=O)N1CCc1nc2sc3c(c2c(=O)[nH]1)CCCC3
0.08,CCC(C)NC(=O)c1sc2nc(-c3ccc(OC)cc3)cn2c1C (centres undefined)
